CtBP-E1A inh: CtBP/E1A binding inhibition | AlphaScreen GST-E1A/His-CtBP binding, 1536-well; stronger effect = lower value; control for the full effect not named in the record | activity change, % (no concentration beside the values) | 340,000 tested, 0.49% active | AID 651724; in the data active means activity change below about -65%; inconclusive means about -30% to -65%; inactive means above about -30%; also: % is scaled to controls: 0 for no effect and ±100 for the full control effect; compound concentration not given in the record
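AlphaScreen with 125 nM GST-E1A and 125 nM His-CtBP (5X stocks) in Tris pH 8.0, 300 mM NaCl, BSA, Tween 20, TCEP. Compounds preincubated 2 h at 37 deg C, then glutathione donor/nickel acceptor beads added for 1 h at 37 deg C in dark.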
TRPML1 agonist: human mucolipin-1 channel agonism | TRPML1-expressing cells, Ca2+ dye fluorescence, FDSS; host cell line not named in the record; reference of the full effect not given here | activation, % (concentration not given with the values) | 410,000 tested, 0.12% active | AID 624414; in the data active = activation above about 50%; inconclusive = about 30% to 50%; inactive = below about 30%; also: 0% is about no effect; the text of the record puts the active cut at 80%
Target sequence (Q9GZU1 whole entry, looked up): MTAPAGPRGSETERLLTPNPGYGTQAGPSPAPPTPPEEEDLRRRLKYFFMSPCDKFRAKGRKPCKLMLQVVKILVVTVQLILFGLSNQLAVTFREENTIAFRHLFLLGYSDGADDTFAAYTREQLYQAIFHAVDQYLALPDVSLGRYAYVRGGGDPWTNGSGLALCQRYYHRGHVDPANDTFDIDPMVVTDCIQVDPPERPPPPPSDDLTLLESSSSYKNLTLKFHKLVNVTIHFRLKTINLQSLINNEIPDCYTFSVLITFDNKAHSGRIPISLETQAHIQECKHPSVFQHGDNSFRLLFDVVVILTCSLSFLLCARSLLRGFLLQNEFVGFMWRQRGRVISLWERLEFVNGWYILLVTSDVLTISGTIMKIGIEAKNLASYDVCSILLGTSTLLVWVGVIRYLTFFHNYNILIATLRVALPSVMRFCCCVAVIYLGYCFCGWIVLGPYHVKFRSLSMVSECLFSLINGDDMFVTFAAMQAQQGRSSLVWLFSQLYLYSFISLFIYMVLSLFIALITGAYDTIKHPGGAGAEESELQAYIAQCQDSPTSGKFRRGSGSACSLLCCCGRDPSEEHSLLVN
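Agonist activity was taken from a 110 s kinetic Ca2+ dye read on the FDSS after pinning compounds onto TRPML1-DL cells. The cells were seeded at 1,500/well with Tet inducer, incubated about 16 h, then dye-loaded at room temperature.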
D2 potentiator: positive allosteric modulators of human D2 dopamine receptor; P14416; DiscoveRx D2 beta-arrestin cells, luminescence, 90 min; 100% = 57 uM dopamine signal; potentiation, % (no concentration beside the values); 360,000 tested, 0.23% active; AID 624464; active = potentiation of 50% or more; inconclusive = 30% to 50%; inactive = 30% or less;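 also: compound concentration not given in the record; tested on top of an EC20 dose of dopamine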
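PathHunter beta-arrestin assay in DiscoveRx D2 cells. Compounds were added with an EC20 of dopamine (50 nM final) for 90 min at 37 deg C. Luminescence was read 1 h after detection reagent, with 57 uM dopamine as the EC100 control.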
TRPV1 PAM: enhances activation of the human vanilloid receptor TRPV1 | AID 540277 | 320,000 tested, 0.02% active | potentiation, % at 8.33 µM | TRPV1-expressing cells, Fluo-8 calcium influx, capsaicin EC20 potentiation; host cell line not named in the record; control for the full effect not named in the record; active means potentiation above 80%; inconclusive means 30% to 80%; inactive means below 30%; also: 0% is about no effect
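Cells expressing TRPV1 were dye-loaded with Fluo-8 and read kinetically: 10 s baseline, 3 min after compound (agonist portion), then 2 min after EC20 capsaicin (allosteric enhancer portion). Calcium-bound dye fluorescence at 480/520 nm.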
Six1-Eya2 blk: blocks human Six1 binding to Eya2; Q15475+O00167; AlphaScreen GST-Six1/His-Eya2 binding, biochemical; stronger effect = lower value; control for the full effect not named in the record; activity change, % (no concentration beside the values); 360,000 tested, 0.56% active; in the data active = activity change below about -65%; inconclusive = about -30% to -65%; inactive = above about -30%; also: % is scaled to controls: 0 for no effect and ±100 for the full control effect; compound concentration not given in the record
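Compounds are tested against tagged Six1 and Eya2 proteins bridged by glutathione donor and nickel acceptor beads; after a one-hour incubation at 37 °C without light, AlphaScreen emission is recorded.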
TRPML1 inh: human mucolipin-1 channel inhibition. AID 624415. Q9GZU1. TRPML1-inducible cells, Ca2+ dye fluorescence, FDSS; stronger effect = lower value; inhibition of EC80 agonist-evoked calcium signal. activity change, negative = inhibition, % (concentration not given with the values). 390,000 tested, 0.02% active; in the data active means activity change below about -50%; inconclusive means about -30% to -50%; inactive means above about -30%;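 also: stimulus is agonist 54-4 at its EC80 concentration; % is scaled to controls: 0 for no effect and ±100 for the full control effect; compound concentration not given in the record; the text of the record puts the active cut at -80%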
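Tet-induced TRPML1-DL cells loaded with Ca8 no-wash calcium dye were read kinetically on FDSS. Compound addition was followed by EC80 agonist 54-4 (4 uM final); inhibition was read over 110 s.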
Numbers without * were called inactive; ? = inconclusive; · = not tested or not shown; & = joins results of further samples. This is a subset. The share of hits here may be higher or lower than overall.

Structure	TRPML1 agonist	TRPML1 inh	TRPV1 PAM	CtBP-E1A inh	Six1-Eya2 blk	D2 potentiator
Cc1cc(N(CCCl)CCCl)ccc1C=NNC(=O)c1cccnc1	3.2	9	·	0	-17	-8
CCOC(=O)c1c(N)n(Cc2ccccc2)c2nc3ccccc3nc12	2.1	-2	4	4	7	-15
O=C1NC(=O)N(c2ccc(Cl)cc2)C(=O)/C1=C/c1coc2ccc(O)cc2c1=O	-0.2	5	-2	-4	-11	-10
CN1CCN(Cc2c(F)cccc2Cl)CC1	·	·	-4	·	-3	-41
CCN1CC=C(c2c[nH]c3ccccc23)CC1	-0.2	0	-2	3	5	-38
COc1ccccc1N1C(=O)NC(=O)/C(=C/c2ccc3c(c2)Cc2ccccc2-3)C1=O	0.6	-15	30	0	7	-6
O=C(Cn1ncc2ccsc2c1=O)N1CCC2(CC1)OCCO2	-0.2	-10	0	-10	-7	2
CC1(O)C[C@]2(C)N(O)C3CCCC[C@@H]3N2O1 (stereo partly drawn)	-0.3	9	?	9	0	4

7 entries picked at random from those above, as already listed:
Structure	TRPML1 agonist	TRPML1 inh	TRPV1 PAM	CtBP-E1A inh	Six1-Eya2 blk	D2 potentiator
CCOC(=O)c1c(N)n(Cc2ccccc2)c2nc3ccccc3nc12	2.1	-2	4	4	7	-15
CC1(O)C[C@]2(C)N(O)C3CCCC[C@@H]3N2O1 (stereo partly drawn)	-0.3	9	?	9	0	4
CN1CCN(Cc2c(F)cccc2Cl)CC1	·	·	-4	·	-3	-41
O=C1NC(=O)N(c2ccc(Cl)cc2)C(=O)/C1=C/c1coc2ccc(O)cc2c1=O	-0.2	5	-2	-4	-11	-10
COc1ccccc1N1C(=O)NC(=O)/C(=C/c2ccc3c(c2)Cc2ccccc2-3)C1=O	0.6	-15	30	0	7	-6
O=C(Cn1ncc2ccsc2c1=O)N1CCC2(CC1)OCCO2	-0.2	-10	0	-10	-7	2
CCN1CC=C(c2c[nH]c3ccccc23)CC1	-0.2	0	-2	3	5	-38

In a second layout: entries from further up
Screens in order – TRPML1 agonist | TRPML1 inh | TRPV1 PAM | CtBP-E1A inh | Six1-Eya2 blk | D2 potentiator
> CCN1CC=C(c2c[nH]c3ccccc23)CC1
  -0.2 | 0 | -2 | 3 | 5 | -38
> COc1ccccc1N1C(=O)NC(=O)/C(=C/c2ccc3c(c2)Cc2ccccc2-3)C1=O
  0.6 | -15 | 30 | 0 | 7 | -6

Later entries.
Structure	TRPML1 agonist	TRPML1 inh	TRPV1 PAM	CtBP-E1A inh	Six1-Eya2 blk	D2 potentiator
CCC1(C)CN(S(=O)(=O)OCC(Cl)(Cl)Cl)C(=O)N1 (stereo not drawn)	-0.7	3	-13	3	0	-3
CC(=O)NC(Cc1ccc(N(CCCl)CCCl)cc1)C(=O)NC(C(=O)O)C(C)C (stereo not drawn)	0.0	42	16	6	-1	-4
CCC(COC(=O)c1cc(OC)c(OC)c(OC)c1)(c1ccccc1)N(C)C (stereo not drawn)	0.3&-0.9&-0.7	-4&-8&-2	-12&-5	-19&-18&-19	-3&-2&-1	-16&-14&-16
O=CNc1ccc(OP(=O)(Oc2ccccc2)Oc2ccccc2)cc1	0.5	-5	-19	-11	9	-2
O=C(CCC(=O)N1CC2C[C@@H](C1)Cn1c2cccc1=O)NCCc1ccccc1F	·	·	-2	7	2	-1
O=P(O)(O)C12CC3CC(CC(C3)C1)C2	0.3	-16	3	10	9	7
CCCn1ncc(C(=O)O)c1C	-0.4	-17	17	4	7	?
CCOC(=O)c1c(C)c(C(=O)N2CCC3(CC2)OCCO3)c(C)n1CC	2.2	-19	-10	2	-1	-2
Cc1c(C=C2C(=O)N(C)C(=O)N(C)C2=O)c(=O)n(-c2ccccc2)n1C	-0.2	-7	5	-8	3	-4
CCOC(=O)[C@@]12C(=O)C(=O)N[C@]1(c1ccccc1)C1OCCCC12 (stereo partly drawn)	-0.1	8	-1	18	-1	-3
CC(CCN1CC1)=NNC(=O)Nc1cccc2ccccc12	0.0	-5	·	1	-8	-26
O=C1NC(=S)NC(=O)C1Cc1ccccc1O	0.8	6	·	7	10	-9
NC(Cc1ccc(F)cc1)c1csc(Nc2ccccn2)n1 (stereo not drawn)	0.9	·	·	-91*	-86*	-3
COP(=S)(OC)Oc1ccc(SC)c(C)c1	2.9	4	·	17	23	-10
CCOC(=O)C1CCN(/C=C2/C(=O)NC(=O)N(c3cccc(C)c3C)C2=O)CC1	0.4	21	19	·	-3	-6
COc1cccc(C)c1NC1=NCCO1	0.5	0	·	5	-2	-9
CCOC(=O)C(O)(c1ccc(N(C)C(=O)c2ccc(Cl)c(Cl)c2)cc1)C(F)(F)F (stereo not drawn)	1.0	11	-28	7	1	-10
COC(=O)C1C2c3ccccc3OC1(C)N=c1s/c(=C/c3cn(C)nc3C)c(=O)n12 (stereo not drawn)	1.0	-12	-10	-3	-3	-6
CCN1CCN(C(=O)COc2ccc(S(=O)(=O)NC(C)C)cc2)CC1	-0.4	-3	-14	17	3	1
CC(C)OP(=O)(OC(C)C)C(NCc1ccccc1)c1ccccc1 (stereo not drawn)	-0.6	21	-9	-9	10	-22
C=CCn1c(=O)c(C=Nc2c(OC)cccc2[N+](=O)[O-])c(O)n(CCCC)c1=O	2.4	80	-8	17	-1	-1
COC(=O)C1=COC(C)C2CN3CCC4(C(=O)Nc5ccccc54)C3CC12 (stereo not drawn)	-0.2	-6	10	0	23	-2
CCn1c(O)c(/C=N/NC(=O)c2ccccc2)c(=O)n(CC)c1=S	0.8	-2	-23	-4	6	1
COC(=O)C1=C(c2ccccc2)C[C@@H]2CC[C@H]1N2C(=O)NCc1ccc(C(F)(F)F)cc1	-0.1	16	·	0	-5	-4
C=CCN1CCC2(C)c3cc(O)ccc3CC1C2C (stereo not drawn)	0.7	20	·	-8	2	-26
O=C(Cc1ccccc1)N1CCN(Cc2cccnc2)CC1	-0.4	-4	2	6	6	6
CCOP(=S)(OCC)SCSP(=S)(OCC)OCC	3.7	9	·	104	62	-8
Cc1ccc(N(C)C(=O)Oc2ccc(C(=O)c3ccc(Cl)cc3)cc2)cc1	1.3	8	-15	21	17	-5
N#CCCn1cc(C(=O)Nc2ccccc2Br)c(-c2ccc3c(c2)OCCO3)n1	-0.1	19	5	3	3	-8
CCOC(=O)CNC(=O)N1Cc2ccccc2-n2nncc2C1	-0.3	-8	·	-14	0	-4
Clc1cccc(N2CCNCC2)c1	-0.4	20	-5	4	4	-33
O=C(Nc1ccccc1F)OC1CN2CCC1CC2 (stereo not drawn)	0.2	-10	-5	4	-6	-5
CC(=O)N1N=C2C3CCN(CC3)C2C1c1ccc(Br)cc1 (stereo not drawn)	-0.2	-17	8	0	31	-4
O=C(CN1CC=C(c2ccccc2)CC1)Nc1c(Cl)cccc1Cl	-0.1	4	-2	6	-5	-29
O=[N+]([O-])c1ccc2c(c1)C(c1ccccc1)=NCCN2	4.8	-1	3	-1	-10	-6
CC(=O)O[C@H]1[C@H]2O[C@]23[C@@H]2CC[C@]4(O)C[C@@H](O)CC[C@]4(C)C2CC[C@]3(C)[C@H]1c1ccc(=O)oc1 (stereo partly drawn)	0.0	11	-4	·	9	5
Cc1c(N)c(C)c([N+](=O)[O-])c(C)c1[N+](=O)[O-]	2.0	4	0	·	1	-7
CCOC(=O)[C@]12Cc3cc4c(cc3[C@H]1N(Cc1ccccc1)C(=O)c1ccccc12)OCO4	3.2&-0.2	31	·	-16	-18	-10
COc1ccc(OC)c(-n2c(O)c(C=NCc3ccc4c(c3)OCO4)c(=O)[nH]c2=O)c1	-0.1	-3	10	-6	3	2
O=C1NC(=O)N(CCC2=CCCCC2)C(=O)/C1=C/c1cccs1	-0.4	0	12	-16	0	-6
CC(C)CN1CCN(Cc2ccc(F)cc2Cl)CC1CCO (stereo not drawn)	-0.1	-19	-15	1	4	-34
O=[N+]([O-])c1ccc(NCCCN2CCOCC2)c2ncccc12	2.9	-20	-4	-3	4	-8
COCCNC(=O)c1c(N)n(Cc2ccco2)c2nc3ccccc3nc12	-0.1	62	8	16	2	-19
Cc1cc(NC(=O)C(Cl)(Cl)Cl)no1	0.4	-7	·	14	5	-8
CCC12CN3CCN(CC(C3)/C1=N/NC(N)=O)C2	-0.5	-3	-3	2	4	1
O=c1cccc2n1CC1CC2CN(Cc2c(Cl)cccc2Cl)C1 (stereo not drawn)	3.6	4	-2	2	0	2

Assay outcomes: PubChem, National Center for Advancing Translational Sciences (NCATS)
